Screening results as filed in PubChem.
Rango dissoc inh: prevents RanGTP from dissociating the Rango-importin beta complex; O95149+P62826; Biochemical FRET Rango-importin beta, RanGTP-induced dissociation; Potency, µM (top dose mostly 46.1 µM), for the others: at the top dose activity change, negative = inhibition; hit rate 0.071% among 340,000; AID 540253; active means falling FRET ratio curve, often poorly fitted, with flat reads before Ran was added; inconclusive means other falling curves, or compound fluorescence or quenching; inactive means flat or rising ratio curve;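 note: potency is the fitted concentration of half-maximal effect; % of control where 0% means no effect; nearly all actives have a fitted effect of over 45% in size; -100% = wells without RanGTP and RCC1; the record marks most hits as doubtful in a second field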
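Rango (0.1 uM)–importin beta (0.25 uM) complex; RanGTP-RCC1 trigger; 45 min RT; CFP/YFP FRET read.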
GLA inh pH 4.5: alpha-galactosidase A (human) inhibition, pH 4.5; P06280; purified enzyme, 4-MU-alpha-Gal fluorescence, pH 4.5; activity change, negative = inhibition, % at 105 µM; 230,000 tested, under 10 active; AID 1467; inconclusive = small, poorly fitted or top-dose-only inhibition, or a rising curve; inactive = flat fitted curve, though single readings scatter; no compound was filed as active;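 note: 0% = full activity with enzyme and -100% = basal without enzyme; dose as in the result columns while the protocol names 77 µM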
Target sequence (P06280 whole entry, looked up): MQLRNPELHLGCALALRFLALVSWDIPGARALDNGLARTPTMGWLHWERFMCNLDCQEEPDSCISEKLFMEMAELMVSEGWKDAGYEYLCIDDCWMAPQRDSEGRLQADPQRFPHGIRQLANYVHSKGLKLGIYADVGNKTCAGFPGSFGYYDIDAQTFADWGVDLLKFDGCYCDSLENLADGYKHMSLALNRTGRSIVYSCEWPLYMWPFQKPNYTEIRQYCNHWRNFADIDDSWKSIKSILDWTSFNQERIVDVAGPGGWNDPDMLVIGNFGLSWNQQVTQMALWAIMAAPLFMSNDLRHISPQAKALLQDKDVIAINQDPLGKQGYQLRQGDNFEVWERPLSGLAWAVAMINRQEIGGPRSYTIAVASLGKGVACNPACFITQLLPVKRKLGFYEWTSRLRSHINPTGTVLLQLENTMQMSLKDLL
miR-21 FLuc: miR-21 reporter, rising signal | HeLa miR-21 FLuc reporter, luciferase, 48 h | Potency, µM (series often up to 38.3 µM), for inactives: top-dose reporter change, positive = more light | 340,000 tested, under 10 active; active = well fitted rising curve with a large enough effect; inconclusive = small, poorly fitted or top-dose-only effect; inactive = no such curve, though single readings can be large or run the other way;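 note: % of control where 0% means no effect; miR-21 action dims this reporter so a rising signal means less miR-21 action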
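Compounds were titrated across several concentrations (up to approximately 40 uM) and incubated 48 hours with HeLa miR-21-FLuc reporter cells (miR-21 target sequence downstream of FLuc, endogenous miR-21). Readout was firefly luciferase luminescence after lytic detection reagent.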
Rango complex inh: Rango-importin beta binding inhibition | Q14974 | Rango CFP/YFP FRET sensor + importin beta, 45 min | Potency, µM (top dose mostly 92.2 µM), for the others: at the top dose inhibition of complex formation | hit rate 0.031% among 340,000; active = rising FRET ratio curve, often small or poorly fitted; inconclusive = mostly compound fluorescence or quenching in the first reads; inactive = flat curves in all reads;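 note: potency is the fitted concentration of half-maximal effect; 0% = DMSO wells and 100% = buffer wells lacking importin beta; nearly all actives have a fitted effect of over 15% in size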
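Inhibition scored from the CFP 486 nm/YFP 530 nm FRET ratio 45 min after adding 0.125 microM importin beta to 50 nM Rango biosensor preincubated 5 min with compound (room temperature, PBS with DTT, Tween-20, BSA). No-importin wells as positive control.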
The depositor's hits bear a star; ? = inconclusive; nt = no result given; & = joins results of further samples. Some of the compounds tested, so the mix of outcomes need not match the whole.

mol | Rango dissoc inh | GLA inh pH 4.5 | miR-21 FLuc | Rango complex inh
CC(NCc1cccnc1)c1ccccc1 (centres undefined) | -5.4% | nt | -1.5% | -0.8%
Cc1cc(C)nc(N2CCN(c3nc(C)cc(C)n3)CC2)n1 | nt | 5.2 | -0.2% | nt
CCN1C(=O)c2cccc3c(S(=O)(=O)Nc4c(C)n(C)n(-c5ccccc5)c4=O)ccc1c23 | -18.4% | -3.2 | -4.4% | 1.6%
O=C(NC1CCN(Cc2ccccc2)CC1)c1cccc(S(=O)(=O)Nc2ccc(Br)cc2)c1 | -2.8% | nt | nt | 1.6%
O=C(c1nn2c(C(F)(F)F)cc(-c3ccccc3)nc2c1Cl)N1CCOCC1 | 3.6% | -0.8 | -7.4% | 4.1%
COc1ccc(NC(=O)CCCn2nc(C)c3c(C)n(-c4ccccc4)nc3c2=O)cc1 | 11.3% | nt | -0.9% | -0.8%
Cc1ccn2cc(CNS(=O)(=O)c3cccs3)nc2c1 | -17.9% | 7.0 | -26.0% | ?
COC(=O)CC1(C(=O)OC)Oc2ccccc2C(=O)N1c1ccc(F)cc1F (centres undefined) | 10.5% | nt | nt | -0.8%
COc1ccc(NC(=O)CSc2nnnn2-c2ccc(OC)cc2)cc1 | 26.6% | 4.6 | -2.8% | 0.8%
CCN(CC)CCC(=O)N1c2ccccc2Sc2ccc(NC(=O)OC)cc21 | -1.7% | nt | 5.3% | 3.3%
O=c1nc(Nc2ccccc2)oc2ccccc12 | 15.2% | -4.3 | -54.9% | -0.1%
COc1ccc(/C=C(/NC(=O)c2ccco2)C(=O)Nc2cccc(C(=O)O)c2)cc1 | -14.9% | nt | 8.4% | 0.1%
CCn1c(SCC(=O)N2CCc3ccccc32)nc2c(c1=O)SC(C)C2 (centres undefined) | 19.4% | -4.1 | 1.5% | 3.5%
Cc1nc(-c2ccccn2)nc(SCC(=O)N2CCOCC2)c1Cl | 17.0% | -1.4 | -2.5% | 0.8%
O=C(OCCCc1cc2ccccc2c(=O)o1)c1ccco1 | -1.1% | nt | nt | ?

Further compounds follow:
mol | Rango dissoc inh | GLA inh pH 4.5 | miR-21 FLuc | Rango complex inh
COC(=O)c1ccc(COc2ccc(C)c(C)c2)o1 | -4.1% | nt | -64.1% | 6.0%
O=C(O)c1cccc(S(=O)(=O)N(Cc2ccccc2)c2ccc(Cl)cc2)c1 | 1.3% | nt | 0.6% | 5.2%
O=C(Cc1ccccc1)Nc1ncccc1Cl | -2.9% | nt | nt | 0.3%
COc1cccc(C(=O)NC2CCNCC2)c1 | -11.8% | nt | 0.2% | 2.5%
Nc1nn2c(C(F)(F)F)cc(=O)[nH]c2c1N=Nc1cccc(F)c1 | 0.2% | 1.7 | -2.4% | 4.8%
COc1ccc(Br)cc1/C=N/n1c(C)nc2ccccc2c1=O | 1.7% | nt | -0.9% | 1.9%
Cc1ccc(N=C2SCCCN2C(=O)C2=COCCO2)cc1Cl | -12.9% | nt | nt | -1.5%
Cc1ccccc1OCc1nc(-c2ccc(NC(=O)c3cccs3)cc2)no1 | -1.8% | 0.3 | -42.5% | 0.2%
CCOC(=O)/C=C1\NC(C)(C)Cc2cc(OC)c(O)cc21 | -7.9% | -7.1 | -29.9% | -5.3%
Cc1ccc(-n2c(SCC(=O)NCc3ccco3)nc3nc4c(cc3c2=O)COC(C)(C)C4)cc1 | -5.9% | -14.3 | -7.7% | -0.4%
CCC(=O)Nc1ccc(Cl)c(NC(=O)c2ccc(Br)o2)c1 | 0.6% | 1.7 | -8.4% | -1.8%
O=C(CN1C(=O)C2CC=C(Cl)CC2C1=O)N1CCOCC1 (centres undefined) | 10.7% | 7.9 | -2.0% | -3.3%
O=C(Nc1ccc2c(c1)oc1ccccc12)N1CCOCC1 | 1.0% | 5.8 | -58.9% | -0.7%
Nc1ccc(C(=O)c2ccccc2C(=O)O)cc1Cl | 3.2% | 2.1 | -3.2% | -2.9%
Cc1cccc(-c2nc(-c3ccncc3)no2)c1 | -8.1% | nt | -45.5% | ?

Continued:
mol | Rango dissoc inh | GLA inh pH 4.5 | miR-21 FLuc | Rango complex inh
Cc1cccc(C)c1NC(=O)Cc1cccs1 | ? | nt | -1.7% | -3.3%
COc1ccc(CCN(C)C(=O)c2oc3ccccc3c2C)cc1OC | -8.5% | nt | nt | -0.4%
Cc1cc(C(=O)CN2CCC(C)CC2)c(C)n1-c1ccc(F)cc1 | -7.8% | -6.3 | -40.1% | 2.1%
O=c1c2[nH]cnc2n(-c2cccc(F)c2)c(=O)n1Cc1ccccc1 | 27.8% | nt | -13.3% | -1.3%
O=C(c1cc(=O)[nH]c2ccccc12)N1CCN(S(=O)(=O)c2ccc(Cl)cc2)CC1 | 0.1% | nt | nt | 0.7%
CC(C)CCn1c2ccccc2c2cc(CC(N)=O)ccc21 | 3.2% | -24.1 | 0.2% | -1.6%
CCCCNC(=O)c1onc(CSc2ccccc2F)c1C(=O)O | ? | 1.4 | -24.6% | -6.6%
COC(=O)/C(C#N)=C/c1c[nH]c2ccccc12 | -10.9% | -9.5 | -42.2% | ?
CC(=O)c1ccc(N(C(=O)c2ccco2)C(C(=O)NC2CCCC2)c2cccs2)cc1 (centres undefined) | 8.0% | nt | -9.6% | 0.6%
COc1cccc(CC(=O)OCC(=O)NCc2ccc3c(c2)OCO3)c1 | 10.2% | nt | nt | -2.7%
CCCCCNC(=O)C1CC=CCC1C(=O)O (centres undefined) | -5.8% | -3.6 | 2.4% | 0.8%
O=C(CN1CCN(Cc2ccccc2)CC1)NCC1COc2ccccc2O1 (centres undefined) | -8.2% | 5.1 | -14.7% | -4.4%
Clc1ccccc1C1=CC(c2ccco2)n2nnnc2N1 (centres undefined) | -13.6% | 0.3 | 3.9% | -3.0%
CC1Sc2ccc(S(=O)(=O)CCC(=O)N3CCc4ccccc43)cc2NC1=O (centres undefined) | ? | nt | 0.2% | 2.3%
COc1cccc(NC(=O)NC2(C(F)(F)F)Oc3ccccc3O2)c1 | -6.2% | -7.5 | -56.7% | -3.9%

Carrying on:
mol | Rango dissoc inh | GLA inh pH 4.5 | miR-21 FLuc | Rango complex inh
CCOC(=O)c1cccc(NC(=O)CCn2c(=O)oc3ccccc32)c1 | -2.1% | nt | -0.1%&-6.3% | 0.3%
Cn1c(=O)[nH]c(=O)c2c1nc(OC(=O)c1ccccc1)n2CC(O)COc1ccccc1 (centres undefined) | 3.7% | 3.3 | -2.2% | -0.1%
CCOC(=O)c1cnc2c(Cl)cc(Cl)cc2c1NCCCN1CCOCC1 | -15.6% | nt | -2.6% | ?
CCOC(=O)c1cc(-c2ccccc2)n(CCC(=O)N2CCN(c3ccc(OC)cc3)CC2)c1C | -5.7% | -8.3 | 1.4% | 2.2%
Cc1ccccc1Nc1nc(N)nc(COC(=O)CCS(=O)(=O)c2ccc(Cl)cc2)n1 | 5.5% | nt | nt | 2.6%
CCCCN(C)C(=O)C1CCN(Cc2ccccn2)CC1 | 0.1% | -4.7 | -2.3% | 3.8%
Cc1nc2ccc(S(=O)(=O)N(C)CC(=O)NCc3ccc(N(C)C)cc3)cc2s1 | -1.8% | nt | -1.1% | 8.0%
COc1ccc(C)cc1NC(=O)C1CCN(S(=O)(=O)c2ccc3c(c2)C(C)(C)C(=O)N3C)CC1 | -13.6% | nt | -0.4% | 0.3%
COc1ccc(/C=C/C(=O)c2ccc(OC)cc2OC)cc1 | -9.1% | 0.4 | 12.5% | -1.5%
CC(c1n[nH]c(=S)n1-c1ccccc1)N1CCCCC1 (centres undefined) | 7.0% | 12.6 | -2.8% | 1.4%
CCCOc1ccc(OCCCCNC(C)CC)cc1 (centres undefined) | 7.0% | -2.7 | 3.3% | 3.8%
COc1ccc(C(=O)Nc2ccc3c(c2)Cc2ccccc2-3)cc1 | 2.4% | 11.7 | -13.8% | 0.1%
COc1ccc(CC(=O)N/N=C(\C)CC(=O)Nc2ccc(N(C)C)cc2)cc1OC | 21.5% | nt | -14.0% | -1.0%
COc1cc(NC(=O)C2C3C=CC(C3)C2C(=O)O)c(OC)cc1Cl (centres undefined) | -0.2% | -5.2 | -0.2% | 0.2%
Cc1ccc2nc(N(CCN(C)C)C(=O)c3ccc4c(c3)OCCO4)sc2c1 | 3.3% | nt | -31.7% | 0.4%

The results go on:
mol | Rango dissoc inh | GLA inh pH 4.5 | miR-21 FLuc | Rango complex inh
Cc1ccc(S(=O)(=O)N2CC=C(C(=O)NC3CCCC3)CC2)cc1 | 0.8% | nt | -1.1% | -4.8%
O=C(COC(=O)c1ccc(S(=O)(=O)N2CCOCC2)cc1)NC1CCCC1 | 15.3% | 3.3 | -4.9% | -1.4%
Cc1oc(-c2ccc3c(c2)OCCO3)cc1C(=O)NC(CCC(=O)O)C(=O)O (centres undefined) | 15.1% | 4.3 | -28.6% | -0.3%
CCCc1ccc(Oc2cn[nH]c2-c2ccc(O)c(C)c2O)cc1 | -9.8% | -1.3 | 15.3% | 0.1%
COc1cccc(C(=O)Nc2cccc(C(=O)NC3=NN(c4c(Cl)cc(Cl)cc4Cl)C(=O)C3)c2)c1 | 2.7% | -10.6 | -8.5% | -5.3%
Cc1cccc(C)c1N1CCN(c2n[nH]c(N)n2)CC1 | 2.8% | 6.8 | -11.0% | ?
O=C(Cn1ccc(NC(=O)OCc2ccccc2)nc1=O)NCC1CCCO1 (centres undefined) | 21.5% | nt | nt | 3.3%
CCn1cc(C(=O)NCC2CCCO2)c(=O)c2cc(S(=O)(=O)N3CCCCCC3)ccc21 (centres undefined) | 1.0% | 4.8 | -4.3% | -0.2%
Nc1c2c(nn1-c1ccc(F)cc1)CSC2 | 9.0% | nt | 2.1% | -2.2%
O=S(=O)(Nc1ccccn1)c1ccc(Cl)cc1 | -8.2% | 8.9 | -7.7% | -0.9%
COC(=O)CN(C#N)c1nc(NC(C)C)nc(NC(C)C)n1 | -6.5% | -8.2 | 4.3% | ?
Cn1c2ccccc2n2c(=O)c(Cl)c(-c3ccccc3)c(C#N)c12 | ? | -0.5 | -6.9% | ?
COCC1=C(C(=O)OC(C)OC(=O)OC(C)C)N2C(=O)[C@@H](NC(=O)/C(=N\OC)c3csc(N)n3)[C@H]2SC1 (some centres undefined) | 9.7% | nt | nt | 0.1%
O=C(O)C1CCCN(S(=O)(=O)c2ccccc2[N+](=O)[O-])C1 (centres undefined) | -4.7% | nt | 0.8% | 0.0%
CCCN1CCN(C(=O)c2oc3ccccc3c2NC(=O)COc2ccc(OC)cc2)CC1 | 0.8% | nt | 0.2% | 0.9%

Structures above with fluorine:
mol | Rango dissoc inh | GLA inh pH 4.5 | miR-21 FLuc | Rango complex inh
O=C(c1nn2c(C(F)(F)F)cc(-c3ccccc3)nc2c1Cl)N1CCOCC1 | 3.6% | -0.8 | -7.4% | 4.1%
COC(=O)CC1(C(=O)OC)Oc2ccccc2C(=O)N1c1ccc(F)cc1F (centres undefined) | 10.5% | nt | nt | -0.8%
Nc1nn2c(C(F)(F)F)cc(=O)[nH]c2c1N=Nc1cccc(F)c1 | 0.2% | 1.7 | -2.4% | 4.8%
Cc1cc(C(=O)CN2CCC(C)CC2)c(C)n1-c1ccc(F)cc1 | -7.8% | -6.3 | -40.1% | 2.1%
O=c1c2[nH]cnc2n(-c2cccc(F)c2)c(=O)n1Cc1ccccc1 | 27.8% | nt | -13.3% | -1.3%
CCCCNC(=O)c1onc(CSc2ccccc2F)c1C(=O)O | ? | 1.4 | -24.6% | -6.6%
COc1cccc(NC(=O)NC2(C(F)(F)F)Oc3ccccc3O2)c1 | -6.2% | -7.5 | -56.7% | -3.9%
Nc1c2c(nn1-c1ccc(F)cc1)CSC2 | 9.0% | nt | 2.1% | -2.2%
